Vaccinia inh = blocks a specific stage of Vaccinia orthopoxvirus infection, primary screen, cell-based, single point. hit rate 0.01% among 89,000. AID 1053133, 2014. activity change (mCherry), % (concentration not given with the values). Vaccinia-infected cells, mCherry/Venus stage reporter fluorescence; stronger effect = lower value; some inactives read as strong as hits;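 active = mCherry past -33% and 40 or more points under the early reporter, replicates agreeing; inconclusive = past -33% without that gap or agreement; tested in A549 cells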;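 also: scaled between vehicle wells and reference inhibitor wells; 23 nL library stock went into each well; one replicate is shown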
Vaccinia inh Venus = also measured in Vaccinia inh; calls as there; activity change (Venus), %; measured here: Venus reporter, other viral stage;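 negative = less Venus signal; first of two replicates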
Starred values were filed as active, the others as inactive; ? = inconclusive; / = not tested or not shown. The list is partial; the hit share may differ from the screen's.

SMILES | Vaccinia inh | Vaccinia inh Venus
C[C@@H]1CN([C@@H](C)CO)C(=O)c2cccc(NC(=O)Nc3ccc4c(c3)OCO4)c2O[C@@H]1CN(C)C(=O)Nc1cccc2ccccc12 | 1.3 | 0.8
CCC(=O)Nc1ccc2c(c1)C(=O)N(C)[C@@H]1CC[C@@H](CC(=O)NCCc3ccncc3)O[C@H]1CO2 | 3.6 | 8.4
N#C[C@H]1[C@@H](c2ccccc2-c2cccc(F)c2)[C@H](CO)N1C(=O)CN1CCOCC1 | -5.3 | -6.7
C[C@@H]1CCCCO[C@H](CN(C)C)[C@H](C)CN([C@H](C)CO)C(=O)c2cc(NS(=O)(=O)c3cccs3)ccc2O1 | 9.3 | -10.8
Cc1noc(C)c1NC(=O)Nc1ccc2c(c1)C(=O)N([C@H](C)CO)C[C@@H](C)[C@@H](CN(C)S(=O)(=O)c1ccccc1)OCCCC[C@H](C)O2 | 22.6 | 21.2
O=C(C[C@H]1CC[C@H](NS(=O)(=O)c2ccccc2)[C@@H](CO)O1)NCc1ccc(Cl)c(Cl)c1 | 14.5 | 12.0
O=C(C[C@H]1C=C[C@@H](NC(=O)CC2CC2)[C@H](CO)O1)NCc1ccc(Cl)cc1 | 8.6 | 16.7
COc1cccc(S(=O)(=O)N[C@@H]2CC[C@@H](CC(=O)NCc3ccc(F)cc3)O[C@H]2CO)c1 | -10.1 | -9.9
Cc1cccc(S(=O)(=O)N2CC[C@@H]3[C@@H](CO)N(C)c4ccc(-c5ccccc5F)cc4[C@@H]32)c1 | ? | /
Cc1cc(C(=O)Nc2cccc3c2O[C@H](CN(C)C(=O)Nc2ccc(C(F)(F)F)cc2)[C@H](C)CN([C@@H](C)CO)C3=O)n(C)n1 | 4.8 | 7.8
O=C(Nc1cc(F)ccc1F)N[C@H]1CC[C@@H](CCNC(=O)c2cnccn2)O[C@@H]1CO | 1.9 | -0.4
CC(=O)N1[C@@H]2c3cccc(=O)n3C[C@@H]2[C@@H](CO)[C@@H]1C(=O)N[C@H](C)c1ccccc1 | 12.1 | 1.0
C[C@@H]1CCCCO[C@@H](CN(C)Cc2ccc(Cl)c(Cl)c2)[C@H](C)CN([C@@H](C)CO)C(=O)c2cc(NC(=O)CCC(F)(F)F)ccc2O1 | ? | /
CO[C@H](CN(C)C(=O)c1ccccc1F)[C@@H](C)CN([C@H](C)CO)S(=O)(=O)c1ccc(Cl)cc1 | 2.3 | 3.3
C[C@@H]1CN([C@H](C)CO)C(=O)c2cc(NS(=O)(=O)c3ccccc3)ccc2O[C@@H](C)CCCCO[C@@H]1CN(C)Cc1ccc(Cl)c(Cl)c1 | ? | /
CC(C)NC(=O)N[C@H]1C[C@@H]2O[C@H](CO)CC[C@@H]2O[C@@H]1CCc1ccc(-c2ccccc2F)cc1 | 11.3 | -4.2
CO[C@@H]1CN(C)C(=O)c2cc(NC(=O)NC3CCCCC3)ccc2OC[C@@H](C)NC[C@@H]1C | 6.2 | 1.5
CCNC(=O)C[C@H]1CC[C@H]2[C@@H](COc3ccc(NS(C)(=O)=O)cc3C(=O)N2C)O1 | -6.3 | -1.1
C/C=C/c1ccc([C@@H]2[C@H]3CN(C(=O)Nc4cc(F)ccc4F)CCCCN3[C@H]2CO)cc1 | -22.0 | -18.2
COc1cccc(C(=O)Nc2ccc3c(c2)OC[C@H](C)N(CC2CC2)C[C@H](C)[C@H](OC)CN(C)C3=O)c1 | 1.1 | -3.9
COc1ccc(CN(C)C[C@H]2Oc3c(NC(=O)Nc4ccc(C(F)(F)F)cc4)cccc3C(=O)N([C@H](C)CO)C[C@@H]2C)cc1 | -3.9 | -5.8
Cc1ccc(S(=O)(=O)Nc2ccc3c(c2)C(=O)N([C@H](C)CO)C[C@@H](C)[C@H](CN(C)C(=O)NC2CCCCC2)O3)cc1 | 20.4 | 4.4
C[C@H](CO)N1C[C@H](C)[C@H](CN(C)Cc2ccccc2)Oc2ccc(NS(=O)(=O)c3cccs3)cc2C1=O | 7.3 | 3.2
CO[C@@H]1CN(C)C(=O)c2cc(NC(=O)Nc3ccccc3)ccc2OC[C@@H](C)N(C(=O)Nc2c(C)noc2C)C[C@@H]1C | -1.7 | 2.3
CCCNC(=O)N1[C@H](C#N)[C@@H](c2ccccc2)[C@@H]1CO | 5.8 | 0.3

14 of these compounds, reformatted:
Results follow in this order: Vaccinia inh	Vaccinia inh Venus
- C[C@@H]1CN([C@@H](C)CO)C(=O)c2cccc(NC(=O)Nc3ccc4c(c3)OCO4)c2O[C@@H]1CN(C)C(=O)Nc1cccc2ccccc12
  1.3	0.8
- CCC(=O)Nc1ccc2c(c1)C(=O)N(C)[C@@H]1CC[C@@H](CC(=O)NCCc3ccncc3)O[C@H]1CO2
  3.6	8.4
- N#C[C@H]1[C@@H](c2ccccc2-c2cccc(F)c2)[C@H](CO)N1C(=O)CN1CCOCC1
  -5.3	-6.7
- C[C@@H]1CCCCO[C@H](CN(C)C)[C@H](C)CN([C@H](C)CO)C(=O)c2cc(NS(=O)(=O)c3cccs3)ccc2O1
  9.3	-10.8
- Cc1noc(C)c1NC(=O)Nc1ccc2c(c1)C(=O)N([C@H](C)CO)C[C@@H](C)[C@@H](CN(C)S(=O)(=O)c1ccccc1)OCCCC[C@H](C)O2
  22.6	21.2
- O=C(C[C@H]1CC[C@H](NS(=O)(=O)c2ccccc2)[C@@H](CO)O1)NCc1ccc(Cl)c(Cl)c1
  14.5	12.0
- O=C(C[C@H]1C=C[C@@H](NC(=O)CC2CC2)[C@H](CO)O1)NCc1ccc(Cl)cc1
  8.6	16.7
- COc1cccc(S(=O)(=O)N[C@@H]2CC[C@@H](CC(=O)NCc3ccc(F)cc3)O[C@H]2CO)c1
  -10.1	-9.9
- Cc1cccc(S(=O)(=O)N2CC[C@@H]3[C@@H](CO)N(C)c4ccc(-c5ccccc5F)cc4[C@@H]32)c1
  ?	/
- Cc1cc(C(=O)Nc2cccc3c2O[C@H](CN(C)C(=O)Nc2ccc(C(F)(F)F)cc2)[C@H](C)CN([C@@H](C)CO)C3=O)n(C)n1
  4.8	7.8
- O=C(Nc1cc(F)ccc1F)N[C@H]1CC[C@@H](CCNC(=O)c2cnccn2)O[C@@H]1CO
  1.9	-0.4
- CC(=O)N1[C@@H]2c3cccc(=O)n3C[C@@H]2[C@@H](CO)[C@@H]1C(=O)N[C@H](C)c1ccccc1
  12.1	1.0
- C[C@@H]1CCCCO[C@@H](CN(C)Cc2ccc(Cl)c(Cl)c2)[C@H](C)CN([C@@H](C)CO)C(=O)c2cc(NC(=O)CCC(F)(F)F)ccc2O1
  ?	/
- CO[C@H](CN(C)C(=O)c1ccccc1F)[C@@H](C)CN([C@H](C)CO)S(=O)(=O)c1ccc(Cl)cc1
  2.3	3.3

Continuation.
SMILES | Vaccinia inh | Vaccinia inh Venus
Cc1cc(C(=O)Nc2ccc3c(c2)C(=O)N(C)[C@H]2CC[C@@H](CC(=O)N[C@@H](C)c4ccccc4)O[C@H]2CO3)no1 | -14.7 | -6.6
CO[C@@H]1CN(C)C(=O)c2cc(NC(=O)Cc3ccccc3)ccc2OC[C@H](C)N(C(=O)c2ccccc2F)C[C@H]1C | 1.6 | 0.2
COCC(=O)N1CC(=O)N2[C@H](C1)[C@H](c1ccc(-c3ccncc3)cc1)[C@@H]2CO | -2.3 | 6.7
COc1ccccc1-c1cnc2c(c1)C(=O)N([C@H](C)CO)C[C@H](C)[C@@H](CN(C)C(=O)c1cccnc1)O2 | 19.3 | 16.4
Cc1noc(C)c1NC(=O)Nc1ccc2c(c1)CC(=O)N([C@H](C)CO)C[C@@H](C)[C@H](CN(C)C)O2 | 16.7 | 13.3
COc1ccc(NC(=O)N(C)C[C@H]2Oc3ccc(NC(=O)C4CC4)cc3CC(=O)N([C@@H](C)CO)C[C@H]2C)cc1 | 13.0 | 9.8
C[C@@H]1CCCCO[C@@H](CN(C)Cc2ccccc2)[C@H](C)CN([C@@H](C)CO)C(=O)c2cc(NC(=O)Nc3ccc(C(F)(F)F)cc3)ccc2O1 | ? | /
C[C@H](CO)N1C[C@H](C)[C@@H](CN(C)C(=O)Nc2ccc3c(c2)OCO3)Oc2ccc(NC(=O)CCC(F)(F)F)cc2CC1=O | 26.4 | 13.5
CC(C)NC(=O)[C@@]1(c2ccc([N+](=O)[O-])cc2)CC(=O)N(CC23CC4CC(CC(C4)C2)C3)[C@@H]1c1ccc(CO)cc1 | -27.9 | -24.8
O=C(NCC(O)CO)[C@]1(Cc2ccccc2)N=C(c2ccc(OCCCO)cc2)O[C@@H]1c1ccccc1 (some centres undefined) | -29.8 | -16.9
C[C@H]1CN([C@@H](C)CO)C(=O)c2cc(-c3ccccc3F)cnc2O[C@@H]1CN(C)Cc1ccc(F)cc1 | -16.4 | -9.0
C[C@@H]1CCCCO[C@@H](CN(C)C(=O)Nc2ccccc2)[C@H](C)CN([C@@H](C)CO)C(=O)c2cc(NS(=O)(=O)c3ccccc3)ccc2O1 | -14.9 | -14.4
C/C=C/c1ccc2c(c1)O[C@@H](CN(C)C(=O)c1ccc3c(c1)OCO3)[C@H](C)CN([C@@H](C)CO)S2(=O)=O | -14.9 | -11.7
C[C@H]1CN([C@@H](C)CO)C(=O)Cc2cc(NS(=O)(=O)c3ccccc3)ccc2O[C@@H]1CN(C)S(=O)(=O)c1cn(C)cn1 | 25.6 | 15.4
C/C=C/c1cccc(-c2nc(C(=O)NCCN3CCCCC3)cc3c2[C@@H](CCO)N([S@](=O)C(C)(C)C)C3)c1 | 11.9 | 21.5
C[C@H](CO)N1C[C@H](C)[C@@H](CN(C)C(=O)NC2CCCCC2)Oc2cc(C#Cc3ccc(F)cc3)ccc2S1(=O)=O | ? | /
C[C@H]1CCCCO[C@H](CN(C)C(=O)Nc2ccc(C(F)(F)F)cc2)[C@@H](C)CN([C@@H](C)CO)C(=O)c2cc(NS(=O)(=O)c3ccc(F)cc3)ccc2O1 | -10.0 | -1.3
C[C@@H]1CCCCO[C@H](CN(C)Cc2ccc(Cl)c(Cl)c2)[C@@H](C)CN([C@H](C)CO)C(=O)c2cc(NC(=O)Nc3ccc4c(c3)OCO4)ccc2O1 | -20.3 | -13.4
COc1cccc(-c2ccc3c(c2)O[C@@H](CN(C)Cc2ccncc2)[C@H](C)CN([C@@H](C)CO)S3(=O)=O)c1 | ? | /
Cc1cccc(-c2ccc([C@@H]3[C@@H](CO)N4CCCCN(S(=O)(=O)c5ccccc5F)C[C@H]34)cc2)c1 | ? | /
COc1ccccc1-c1cnc2c(c1)C(=O)N([C@@H](C)CO)C[C@@H](C)[C@@H](CN(C)Cc1ccc(C(=O)O)cc1)O2 | 3.6 | 3.0
CCC(=O)N1[C@H](CO)[C@@H](c2ccccc2)C12CN(C(=O)c1ccc3c(c1)OCO3)C2 | 10.0 | 6.1
Cc1ccc(S(=O)(=O)NCC[C@H]2CC[C@H](NC(=O)c3cccc(F)c3)[C@@H](CO)O2)cc1 | -6.1 | -1.4
C[C@H]1CN([C@@H](C)CO)C(=O)c2cc(-c3cncnc3)cnc2O[C@@H]1CN(C)CC1CCCC1 | 12.1 | 2.6
O=C(C[C@@H]1C[C@H]2c3cc(NC(=O)CC4CC4)ccc3O[C@H]2[C@H](CO)O1)NCC1CC1 | -4.5 | 2.2

Arranged by heavy-atom count (descending): 3 of the compounds above.
SMILES | Vaccinia inh | Vaccinia inh Venus
C[C@H](CO)N1C[C@H](C)[C@@H](CN(C)C(=O)NC2CCCCC2)Oc2cc(C#Cc3ccc(F)cc3)ccc2S1(=O)=O | ? | /
Cc1cc(C(=O)Nc2ccc3c(c2)C(=O)N(C)[C@H]2CC[C@@H](CC(=O)N[C@@H](C)c4ccccc4)O[C@H]2CO3)no1 | -14.7 | -6.6
COc1ccccc1-c1cnc2c(c1)C(=O)N([C@H](C)CO)C[C@H](C)[C@@H](CN(C)C(=O)c1cccnc1)O2 | 19.3 | 16.4

The list goes on.
SMILES | Vaccinia inh | Vaccinia inh Venus
C[C@@H]1CN([C@H](C)CO)C(=O)Cc2cc(NC(=O)C3CC3)ccc2O[C@@H]1CN(C)C(=O)NC1CCCCC1 | 6.5 | 4.2
Cc1ccc(S(=O)(=O)Nc2ccc3c(c2)C(=O)N([C@H](C)CO)C[C@H](C)[C@H](CN(C)CC2CC2)OCCCC[C@H](C)O3)cc1 | -26.1 | -25.7
COc1ccc(S(=O)(=O)N(C)C[C@H]2Oc3ccc(NC(=O)CCN4CCOCC4)cc3CC(=O)N([C@H](C)CO)C[C@@H]2C)cc1 | -1.4 | 6.2
COc1ccc(C(=O)Nc2ccc3c(c2)OC[C@@H](C)N(Cc2cocn2)C[C@@H](C)[C@@H](OC)CN(C)C3=O)cc1 | -1.5 | -1.6
COc1cccc(CNC(=O)[C@H]2[C@H](CO)[C@H]3Cn4c(ccc(-c5cccc(OC)c5)c4=O)[C@H]3N2C)c1 | -10.9 | -6.7
C[C@@H]1CN([C@@H](C)CO)C(=O)c2cc(NC(=O)Nc3ccc(C(F)(F)F)cc3)ccc2O[C@H]1CN(C)CC1CCCCC1 | 9.1 | 14.9
C[C@@H]1CN([C@@H](C)CO)C(=O)Cc2cc(NC(=O)Nc3cccc4ccccc34)ccc2O[C@H]1CN(C)Cc1ccncc1 | 6.8 | 12.5
C[C@@H]1CN([C@H](C)CO)C(=O)c2cc(NC(=O)CCN3CCOCC3)ccc2O[C@H]1CN(C)C(=O)NC1CCCCC1 | 9.5 | 0.3
CO[C@@H]1CN(C)C(=O)c2ccc(NC(=O)C3CC3)cc2OC[C@@H](C)N(C(=O)c2ccccc2)C[C@H]1C | 15.4 | 8.8
O=C(NCC[C@H]1CC[C@@H](NC(=O)C2CCC2)[C@@H](CO)O1)c1cnccn1 | 2.6 | 4.3
COc1ccccc1-c1ccc([C@H]2[C@@H](CO)N(CC3CC3)C23CN(S(C)(=O)=O)C3)cc1 | -10.8 | 0.3
COc1ccc(NC(=O)N(C)C[C@@H]2OCc3cnnn3CCCC(=O)N([C@@H](C)CO)C[C@H]2C)c(OC)c1 | 17.5 | 12.6
C[C@H](CO)N1C[C@H](C)[C@H](CN(C)Cc2ccc(C(=O)Nc3ccccc3N)cc2)Oc2ccc(NS(=O)(=O)c3ccccc3)cc2C1=O | 0.9 | 3.4
C[C@H]1CCCCO[C@H](CN(C)Cc2ccncc2)[C@@H](C)CN([C@@H](C)CO)C(=O)c2cc(NC(=O)c3ccccc3)ccc2O1 | -25.1 | -10.4
